Screens from PubChem.
TRPML1 inh – qHTS for Inhibitors of the Human Mucolipin Transient Receptor Potential 1 (TRPML1); hit rate 0.02% among 390,000; TRPML1-inducible cells, Ca2+ dye fluorescence, FDSS; hits give low values; inhibition of EC80 agonist-evoked calcium signal; AID 624415, 2012; activity change, negative = inhibition, % (concentration not given with the values); in the data active means activity change below about -50%; inconclusive means about -30% to -50%; inactive means above about -30%;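 further: stimulus is agonist 54-4 at its EC80 concentration; on the % scale 0 is the no-effect control and ±100 the full control effect; compound concentration not given in the record; the text of the record puts the active cut at -80%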
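TRPML1-DL cells, Tet-induced overnight (~16 h, 37 °C) at 1,500 cells/well, were loaded with Ca8 no-wash dye plus quencher for 45-90 min at room temperature. Compounds were pinned during FDSS kinetic reading; agonist 54-4 at EC80 (4 uM final) then added.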
ClpP mod – qHTS Assay for Activators of ClpP; purified B. subtilis ClpP, FRET peptide cleavage, 20 min; Potency, µM (highest dose often 57.5 µM), inactives show top-dose activity change, negative = active; hit rate 1.9% among 340,000; active = well fitted falling curve with a large enough effect; inconclusive = small, poorly fitted or top-dose-only effect; inactive = no such curve, though single readings can be large or run the other way; further: potency means the concentration at half of the fitted maximal effect; the source files actives as falling curves though it sought activators and does not explain the sign; nearly all actives have a fitted effect of over 65% in size; many hits overshoot -100%
Target sequence (P80244 whole entry, looked up): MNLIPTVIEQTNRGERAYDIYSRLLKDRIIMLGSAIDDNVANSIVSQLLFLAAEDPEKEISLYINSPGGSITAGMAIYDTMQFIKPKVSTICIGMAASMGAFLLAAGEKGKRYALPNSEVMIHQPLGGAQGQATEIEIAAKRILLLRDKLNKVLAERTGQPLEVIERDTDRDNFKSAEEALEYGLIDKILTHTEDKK
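Purified B. subtilis ClpP, 10 microg/mL final in Tris/HCl pH8 with KCl, BSA, glycerol and Tween-20, cleaved an Abz/nitrotyrosine-quenched decapeptide. Fluorescence (ex 320, em 430) was read at 0 and 20 min at room temperature. Delta was normalized to 5.8 microM ADEP and DMSO/no-enzyme controls.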
TRPV1 PAM – HTS Assay for Compounds that Act as Potentiators of the Vanilloid Receptor 1 | potentiation, % at 8.33 µM | AID 540277, 2011 | hit rate 0.02% among 320,000 | TRPV1-expressing cells, Fluo-8 calcium influx, capsaicin EC20 potentiation; host cell line not named in the record; control for the full effect not named in the record; active means potentiation above 80%; inconclusive means 30% to 80%; inactive means below 30%; further: 0% is about no effect
Target sequence (Q8NER1 whole entry, looked up): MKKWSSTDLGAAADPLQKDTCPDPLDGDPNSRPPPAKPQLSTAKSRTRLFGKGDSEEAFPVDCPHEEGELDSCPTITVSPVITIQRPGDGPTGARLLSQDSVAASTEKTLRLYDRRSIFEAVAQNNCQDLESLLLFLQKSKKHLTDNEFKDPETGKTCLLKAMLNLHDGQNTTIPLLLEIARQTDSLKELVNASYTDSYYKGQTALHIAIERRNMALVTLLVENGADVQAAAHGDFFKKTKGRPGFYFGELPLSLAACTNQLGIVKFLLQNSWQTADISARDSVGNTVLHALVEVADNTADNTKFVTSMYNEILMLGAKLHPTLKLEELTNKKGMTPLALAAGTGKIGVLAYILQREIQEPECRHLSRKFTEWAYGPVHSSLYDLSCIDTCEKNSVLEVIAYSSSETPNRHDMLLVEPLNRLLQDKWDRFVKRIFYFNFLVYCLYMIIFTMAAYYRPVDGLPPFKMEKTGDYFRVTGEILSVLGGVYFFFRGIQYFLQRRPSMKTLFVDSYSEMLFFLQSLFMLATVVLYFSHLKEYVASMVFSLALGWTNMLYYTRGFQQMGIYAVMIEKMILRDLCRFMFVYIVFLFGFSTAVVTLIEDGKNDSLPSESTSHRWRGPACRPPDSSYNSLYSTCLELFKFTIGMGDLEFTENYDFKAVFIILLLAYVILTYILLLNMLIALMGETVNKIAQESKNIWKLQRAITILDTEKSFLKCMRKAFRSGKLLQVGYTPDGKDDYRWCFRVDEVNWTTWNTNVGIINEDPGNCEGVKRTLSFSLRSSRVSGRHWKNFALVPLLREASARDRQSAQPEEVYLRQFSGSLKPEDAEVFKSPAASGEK
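Cells expressing TRPV1 were dye-loaded with Fluo-8 and read kinetically: 10 s baseline, 3 min after compound (agonist portion), then 2 min after EC20 capsaicin (allosteric enhancer portion). Calcium-bound dye fluorescence at 480/520 nm.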
Sfp inh – qHTS Assay for Inhibitors of Bacillus subtilis Sfp phosphopantetheinyl transferase (PPTase) | Potency, µM, for the others: max response, negative = inhibition, hits mostly inhibitors | Biochemical Sfp PPTase activity, qHTS | 4'-phosphopantetheinyl transferase ffp (Bacillus subtilis), Q9F4F7 | hit rate 3.5% among 310,000; active means well fitted inhibition curve with a large enough effect; inconclusive means small, poorly fitted or top-dose-only effect, or another doubt; inactive means no such curve, though single readings can be large or run the other way;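 further: the enzyme is Sfp with the accession as filed and its product quenches rhodamine fluorescence; potency means the concentration at half of the fitted maximal effect; 0% = enzyme reaction without inhibitor and -100% = no enzyme wells; top concentration of the series not given in the record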
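Compounds were incubated with enzyme (final 15 nM) for 15 min at room temperature before substrate addition started the reaction. Fluorescence at 525 nm excitation, 598 nm emission was recorded immediately and after 30 minutes.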
gsp ag – qHTS for Agonist of gsp, the Etiologic Mutation Responsible for Fibrous Dysplasia/McCune-Albright Syndrome: qHTS; gsp mutant cells, cAMP HTRF, 30 min; control for the full effect not named in the record; Potency, µM (top dose mostly 76.9 µM), for the others: at the highest dose activation (cAMP increase), hits mostly activators; hit rate 0.13% among 340,000; active = well fitted activation curve with a large enough effect; inconclusive = small, poorly fitted or top-dose-only effect, or another doubt; inactive = no such curve, though single readings can be large or run the other way; cell line not stated here;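 further: phosphodiesterase inhibitor Ro 20-1724 added with compounds to block cAMP breakdown; potency means the concentration at half of the fitted maximal effect; nearly all actives have a fitted effect of over 60% in size; about a fifth of the inactives were tested at one dose only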
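Cells stably selected in G418 were plated at 2000/well, grown 16-24 hr, then given compounds in DMSO with the PDE inhibitor […] (300 uM solution added) for 30 min at 37C; cAMP was read by HTRF.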
gsp antag – qHTS for Antagonists of gsp, the Etiologic Mutation Responsible for Fibrous Dysplasia/McCune-Albright Syndrome: qHTS; gsp-mutant cells, cAMP HTRF, 30 min; control for the full effect not named in the record; Potency, µM (top dose mostly 76.9 µM), for the others: at the top dose activity change, negative = inhibition, actives largely listed as inhibitors; hit rate 0.4% among 340,000; active = falling curve of any shape with a large fitted effect; inconclusive = falling curve, mostly with a smaller effect; inactive = flat or rising curve; cell line not stated here;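 further: intracellular cAMP measured with PDE inhibitor Ro 20-1724 present during compound exposure; potency means the concentration at half of the fitted maximal effect; on the % scale 0 is the no-effect control and ±100 the full control effect; nearly all actives have a fitted effect of over 65% in size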
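Cells in G418 medium, seeded 16-24 h, 37C; buffer exchange to DPBS + 1 mM CaCl2, 0.5 mM MgCl2, 0.05% BSA; cpds in DMSO + […] (300 uM stock), 30 min 37C; HTRF cAMP detection.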
Menin-MLL FL inh – qHTS Assay for Inhibitors Targeting the Menin-MLL Interaction in MLL Related Leukemias: Competition With Fluorescein Labeled MLL-derived Peptide | Fluorescence polarization, fluorescein-MLL peptide displacement from menin | AID 1766, 2009 | 290,000 tested, under 10 active | FP activity change, % at 61.4 µM; inconclusive = falling polarisation curve, or a change in total fluorescence; inactive = total fluorescence flat and polarisation flat or rising; no compound was filed as active; the % refers to the polarisation; negative = inhibition;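 further: % of control where 0% means no effect; inhibitors lower the polarisation; unlabelled MLL peptide was the positive control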
Numbers without * were called inactive; ? = inconclusive; / = not tested or not shown; & = joins results of further samples; [ ] = remark or other dose.

mol	TRPML1 inh	ClpP mod	TRPV1 PAM	Sfp inh	gsp ag	gsp antag	Menin-MLL FL inh
COC(=O)c1ccc2c(=O)n(CCN3CCOCC3)c(SCC(=O)Nc3cccc(OC)c3)nc2c1	9	5.0%	2	1%	?	-14%	-5.1
COc1ccc(OC)c(S(=O)(=O)N2CCC(C(=O)N3CCCC3)CC2)c1	-5	/	11	21%	-15%	10%	2.8
O=C(COC(=O)C1CCN(c2ccc(C(F)(F)F)cn2)CC1)NCc1ccc(F)cc1	-4	/	-16	/	0%[15.4 µM]	-8%	/
CCc1nnc(NC(=O)c2ccc(Cl)c(S(=O)(=O)N3CCc4ccccc4C3)c2)s1	-16	-7.5%	-7	9%	5%[15.4 µM]	-10%	5.2
CC(OC(=O)c1nsc(Cl)c1Cl)C(=O)NCc1ccco1 (configuration not stated)	4	-1.1%	13	0%	-23%	-9%	4.5
CC(=O)Nc1cccc(-c2csc(Nc3ccccn3)n2)c1	16	0.5%	/	89µM*	-12%	-5%	3.0
Nc1nc(SCC(=O)NCc2ccc3c(c2)OCO3)n[nH]1	19	/	3	18%	-56%[inhibitor]	-1%	0.4
O=C(NS(=O)(=O)Nc1ccccc1)C1=C(N2CCCC2)COC1=O	-9	-2.5%	/	/	4%	14%	/
CCN(CC)C(=O)Cn1c(=O)oc2ccccc21	15	0.1%	18	11%	?	5%	4.5
O=C(c1ccccc1O)N1CCOCC1	7	/	1	12%	5%[15.4 µM]	7%	-0.5
CCOC(=O)C1CCN(CCC(=O)Nc2ccc(Br)c(C)c2)CC1	-10&-3	0.9%&0.6%	9	-7%	18%[15.4 µM]	-1%	-2.6
CCOC(=O)c1ccc(S(=O)(=O)NNC(=O)COc2ccc(C)cc2)cc1	-5	6.3%	-3	15%	-17%	-10%	0.6
O=C(CCc1ccccc1)N1CCN(CCO)CC1	2	-0.5%	/	12%	?	1%	4.2
CCc1ccc(C(=O)N/N=C/c2ccc(Cl)cc2Cl)nc1	/	/	-6	-15%	/	/	0.3
COc1ccc(OC)c2nc(-c3ccc4c(c3)OCO4)ccc12	3	0.1%	-2	-15%	0%[15.4 µM]	-11%	-1.6
Cc1cccc(NC(=O)CN2CCN(CC(=O)Nc3cccc(C)c3)CC2)c1	-4	0.6%	-3	20%	-57%[inhibitor]	-4%	1.9
O=C(COC(=O)CCc1nc2ccccc2c(=O)[nH]1)NC(c1ccccc1)c1ccccc1	30	-8.1%	9	4%	?	4%	8.1
CSc1ccccc1C(=O)Nc1cccc([N+](=O)[O-])c1C	4	/	3	2%	2%[15.4 µM]	1%	0.4
O=S(=O)(c1cccc2nonc12)N1CCN(c2ccc(F)cc2)CC1	-11	-4.2%	7	12%	8%	3%	-6.4
O=C(NC1CCN(C(=O)N2c3ccccc3Sc3ccccc32)CC1)c1ccccc1F	-6	-0.5%	/	10%	-14%	?	1.9
COC(=O)C1=C(C)NC(C)=C(C(=O)OC)C1c1ccc(-c2cccc([N+](=O)[O-])c2)o1	23	-3.4%	8	-2%	2%	-7%	7.6
Cc1cc(C)nc(N/N=C/c2cc(Br)ccc2O)n1	-20	/	4	7%	13%[15.4 µM]	-6%	4.8
O=C(c1ccc([N+](=O)[O-])c(CS(=O)(=O)c2ccc(Cl)cc2)c1)N1CCCC1	-14	/	2	3%	17%[15.4 µM]	-1%	-3.9
Cc1ccn2cc(CCNC(=O)c3ccc(Br)o3)nc2c1	29	-16%	2	11%	-55%[inhibitor]	3%	4.3
Cc1oc(C)c(C(N)=O)c1C(N)=O	-9	0.7%	6	18%	22%	4%	2.1
CN(C)CCCNC(=S)NCCNc1nc2cc3c(cc2cc1C#N)OCO3	-26	4.1%	-5	14%	-20%	9%	-0.7
O=C(CN1CCN(Cc2ccc(F)cc2)CC1)Nc1ccccc1F	-14	0.9%	-1	19%	5%	0%	3.6
COC(C/C=C\[C@@H](O)[C@@H](C)OCc1ccccc1)OC	-10	-0.1%	/	/	10%	4%	/
Cc1cccc(N/C=C/c2onc(C)c2[N+](=O)[O-])c1	-14	-1.9%	-9	3%	-18%	4%	?
COC(=O)c1cccn(CC(=O)c2ccc(Cl)cc2Cl)c1=O	-2	/	4	8%	38%	1%	0.7
CC(=O)c1ccc(Nc2c(C)n(C)n(-c3ccccc3)c2=O)cc1	-15	/	-1	25%	-1%[15.4 µM]	/	2.6
O=S(=O)(/C=C/c1ccccc1)Nc1ccc(F)cc1	8	-1.1%	8	25%	-1%[15.4 µM]	7%	-7.3
COc1ccc(/C=C/C(=O)NC(C)CCc2ccccc2)cc1 (configuration not stated)	-9	-3.0%	-8	25%	4%	-20%	3.1
Cc1ccn2c(=O)nc(SCC(=O)N3CCCCC3)nc2c1	3	-22%	2	/	?	-2%	/
CCOC(=O)C(=CNc1cc(OC)ccc1-n1cccc1)C(=O)OCC	20	/	-16	12%	-2%[15.4 µM]	?	0.6
CC(C)(C)NC(=O)Nc1nnc(SCC(=O)NC2CCCCC2)s1	-6	-10%	8	/	1%	-3%	/
O=c1[nH]c2ccccc2cc1CN(Cc1ccco1)S(=O)(=O)c1ccccc1	-4	-1.2%	4	11%	3%[15.4 µM]	-14%	1.0
O=C(NCCCNc1ccnc2cc(Cl)ccc12)c1ccccc1F	8	-19%	8	8%	-48%[inhibitor]	-1%	2.2
C(=C\c1ccccc1)/CN1CCN(Cc2ccc3c(c2)OCCO3)CC1	/	/	0	-15%	/	/	3.5
CCCCC(=O)Nc1ccc2c(c1)OCCO2	-3	1.1%	-18	14%	?	4%	2.4
COc1cccc(C(=O)O/N=C2\CCS(=O)(=O)c3sccc32)c1	3	/	-36	-13%	4%[15.4 µM]	/	-0.8
CCCCOc1ccccc1NC(=O)CC1Nc2ccccc2NC1=O (configuration not stated)	2	-5.3%	?	-4%	-27%	-3%	?
Cc1nn(Cc2ccccc2Cl)c(C)c1C(=O)NCc1ccco1	-8	0.7%	0	11%	-37%[inhibitor]	26%	1.5
S=C(CSc1ccccc1)Nc1cccc2ccccc12	0	-3.7%	/	/	0%	/	/
Cc1ccc(S(=O)(=O)N2CCOCC2)cc1C(=O)NC1CCN(Cc2ccccc2)CC1	-13	1.0%	/	/	-11%	7%	/
COc1ccccc1CN(CC(=O)NCc1ccc2c(c1)OCO2)C(=O)c1ccc2c(c1)OCCO2	-9	0.8%	7	-13%	-37%[inhibitor]	-11%	-0.3
Cc1cc(NC(=O)Cn2nc(C(F)(F)F)c3c2CCC3)n(-c2ccccc2)n1	3	-2.4%	/	-5%	15%	-1%	-2.4
COc1ccc(C2=NOC(COc3ccc4c(C)cc(=O)oc4c3)C2)c(OC)c1 (configuration not stated)	-3	-0.8%	-7	24%	6%[15.4 µM]	31%	-1.0
COc1ccc2[nH]c(=O)c(CN(c3ccccc3OC)S(=O)(=O)c3ccccc3)cc2c1	3	4.2%	-8	4%	1%	?	-4.3
CCCCC1=NN(C(=O)c2cccnc2)C(O)(C(F)(F)F)C1 (configuration not stated)	9	-1.9%	-5	19%	-2%[15.4 µM]	-1%	-2.9
CCCNC(=O)CSc1ccc(S(=O)(=O)N2CCCC2)cn1	12	0.6%	0	/	23%	5%	/
CCOc1ccc(CCNC(=O)COC(=O)c2ccc(S(C)(=O)=O)cc2)cc1OCC	-2	1.4%	-5	/	1%	-26%	/
CC1(C)CC(NC(=O)c2cccc(S(=O)(=O)N(Cc3ccccc3)c3ccccc3)c2)CC(C)(C)N1	34	-1.9%	0	/	-5%	-3%	/
CCc1nnc(NCn2nc(C)cc2C)s1	-7	0.4%	0	-14%	-2%	-15%	-0.1
CSc1nnc(N2C(=O)C(O)=C(C(=O)c3ccco3)C2c2ccccc2F)s1 (configuration not stated)	6	-12%	-18	-17%	?	-9%	/
O=C(CN1C(=O)COc2ccc(Cl)cc21)Nc1ccc2c(c1)OCCO2	-6	-3.5%	22	12%	-29%	-15%	-1.2

(further entries)
mol	TRPML1 inh	ClpP mod	TRPV1 PAM	Sfp inh	gsp ag	gsp antag	Menin-MLL FL inh
O=C(c1ccc(Cl)cc1)N1CCN=C1c1ccccc1	-7	-1.4%	-5	7%	-13%	7%	6.3
CCN(CC)CCNC(=O)c1c(C)oc2cc(Br)c(OC)cc12	4	-2.1%	-4	11%	-5%	11%	-1.2
Cc1ccc(S(=O)(=O)NC(C)C(=O)NC(C)c2cccs2)cc1 (configuration not stated)	-8	/	-9	10%	-18%[15.4 µM]	0%	5.8
Cc1ccccc1NCCNc1ccccc1C	1	-1.1%	15	-10%	-2%	-5%	-0.6
O=C(O)CSc1nnc(COc2ccc(Br)cc2)n1-c1ccccc1	5	/	18	13%	-15%	-10%	0.1
Oc1c(C=Nc2ccccc2)sc2ccccc12	-30	/	3	20%	5%	-25%	0.5
O=C(Nc1nc(-c2ccccc2)cs1)c1ccco1	9	/	-2	16%	-3%	-14%	1.5
CSCCC(NC(=O)c1ccccc1Cl)C(=O)N1CCCCCCC1 (configuration not stated)	-17	0.0%	4	/	-3%	11%	/
Cc1ccc(C2(C)NC(=O)N(CC(=O)Nc3ccc4c(c3)CCC4)C2=O)cc1 (configuration not stated)	18	-4.3%	6	/	-42%[inhibitor]	-1%	/
C#CCOCCOCCOCCNc1nc(N2CCN(C(=O)[C@H]([C@@H](C)O)n3cc(CCCCN)nn3)CC2)nc(N2CCN(C(=O)[C@H]([C@@H](C)CC)n3cc(CCCCN)nn3)CC2)n1	1	-0.1%	?	/	-57%[inhibitor]	-1%	/
CS(=O)(=O)N(CC(N)=O)c1ccc(F)c(Cl)c1	15	-1.0%	-7	-14%	-6%	5%	-1.7
